Screens (PubChem)
TRPML1 blocker: qHTS for Inhibitors of the Human Mucolipin Transient Receptor Potential 1 (TRPML1); Mucolipin-1 (Homo sapiens), Q9GZU1; activity change, negative = inhibition, % (no concentration beside the values); TRPML1-inducible cells, Ca2+ dye fluorescence, FDSS; active compounds read low; inhibition of EC80 agonist-evoked calcium signal; 390,000 compounds, 0.02% hits; in the data active means activity change below about -50%; inconclusive means about -30% to -50%; inactive means above about -30%;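 also: stimulus is agonist 54-4 at its EC80 concentration; % is scaled to controls: 0 for no effect and ±100 for the full control effect; compound concentration not given in the record; the text of the record puts the active cut at -80%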
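Tet-induced TRPML1-DL cells loaded with Ca8 no-wash calcium dye were read kinetically on FDSS. Compound addition was followed by EC80 agonist 54-4 (4 uM final); inhibition was read over 110 s.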
ClpP mod: qHTS Assay for Activators of ClpP; ATP-dependent Clp protease proteolytic subunit (Bacillus subtilis (strain 168)), P80244; purified B. subtilis ClpP, FRET peptide cleavage, 20 min; Potency, µM (doses to about 57.5 µM), for the others: at the top dose activity change, negative = active; 340,000 compounds, 1.9% hits; active = well fitted falling curve with a large enough effect; inconclusive = small, poorly fitted or top-dose-only effect; inactive = no such curve, though single readings can be large or run the other way; also: potency is read from the fitted curve at half-maximal effect; the source files actives as falling curves though it sought activators and does not explain the sign; nearly all actives have a fitted effect of over 65% in size; many hits overshoot -100%
Target sequence (P80244 whole entry, looked up): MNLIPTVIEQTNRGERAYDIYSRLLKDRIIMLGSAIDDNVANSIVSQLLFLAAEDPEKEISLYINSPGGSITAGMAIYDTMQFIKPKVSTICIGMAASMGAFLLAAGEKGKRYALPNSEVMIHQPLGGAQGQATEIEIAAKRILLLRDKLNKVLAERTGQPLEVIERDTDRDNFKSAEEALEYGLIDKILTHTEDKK
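Buffer: 100 mM Tris/HCl pH8, 100 mM KCl, 0.05% low protease BSA, 2.5% glycerol, 0.01% Tween-20. ClpP 10 microg/mL final; 20 min RT; delta FRET normalized to ADEP and DMSO controls.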
Sfp PPTase inh: qHTS Assay for Inhibitors of Bacillus subtilis Sfp phosphopantetheinyl transferase (PPTase). Biochemical Sfp PPTase activity, qHTS. AID 1490, 2009. 310,000 compounds, 3.5% hits. Potency, µM, inactives show max response, negative = inhibition, actives largely listed as inhibitors; active = well fitted inhibition curve with a large enough effect; inconclusive = small, poorly fitted or top-dose-only effect, or another doubt; inactive = no such curve, though single readings can be large or run the other way;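 also: the enzyme is Sfp with the accession as filed and its product quenches rhodamine fluorescence; potency is read from the fitted curve at half-maximal effect; 0% = enzyme reaction without inhibitor and -100% = no enzyme wells; top concentration of the series not given in the record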
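With Hepes-Na pH 7.6 buffer containing 10 mM MgCl2, Sfp (15 nM) modified BHQ-2-YbbR (12.5 uM) using rhodamine-CoA (5 uM). Two reads 30 minutes apart at 525/598 nm yielded each well's rate.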
TRPML1 ag: qHTS for Agonists of the Human Mucolipin Transient Receptor Potential 1 (TRPML1). TRPML1-expressing cells, Ca2+ dye fluorescence, FDSS; host cell line not named in the record; reference of the full effect not given here. activation, % (test concentration not listed). 410,000 compounds, 0.12% hits; in the data active = activation above about 50%; inconclusive = about 30% to 50%; inactive = below about 30%; also: 0% is about no effect; the text of the record puts the active cut at 80%
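TRPML1-DL cells, Tet-induced overnight (~16 h, 37 degrees C), loaded 45-90 min at room temperature with Ca8 no-wash calcium dye plus quencher. FDSS fluorescence: 10 s baseline, compound pin-transfer, 110 s agonist read, then EC80 54-4 (4uM final) and 110 s antagonist read.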
Menin MLL FP FL: qHTS Assay for Inhibitors Targeting the Menin-MLL Interaction in MLL Related Leukemias: Competition With Fluorescein Labeled MLL-derived Peptide; Fluorescence polarization, fluorescein-MLL peptide displacement from menin; FP activity change, % at 61.4 µM; 290,000 tested, under 10 active; AID 1766, 2009; inconclusive = falling polarisation curve, or a change in total fluorescence; inactive = total fluorescence flat and polarisation flat or rising; no compound was filed as active; the % refers to the polarisation; negative = inhibition;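 also: % of control where 0% means no effect; inhibitors lower the polarisation; unlabelled MLL peptide was the positive control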
TRPV1 PAM: HTS Assay for Compounds that Act as Potentiators of the Vanilloid Receptor 1 | TRPV1-expressing cells, Fluo-8 calcium influx, capsaicin EC20 potentiation; host cell line not named in the record; control for the full effect not named in the record | Transient receptor potential cation channel subfamily V member 1 (Homo sapiens), Q8NER1 | 320,000 compounds, 0.02% hits | potentiation, % at 8.33 µM; active means potentiation above 80%; inconclusive means 30% to 80%; inactive means below 30%; also: 0% is about no effect
Target sequence (Q8NER1 whole entry, looked up): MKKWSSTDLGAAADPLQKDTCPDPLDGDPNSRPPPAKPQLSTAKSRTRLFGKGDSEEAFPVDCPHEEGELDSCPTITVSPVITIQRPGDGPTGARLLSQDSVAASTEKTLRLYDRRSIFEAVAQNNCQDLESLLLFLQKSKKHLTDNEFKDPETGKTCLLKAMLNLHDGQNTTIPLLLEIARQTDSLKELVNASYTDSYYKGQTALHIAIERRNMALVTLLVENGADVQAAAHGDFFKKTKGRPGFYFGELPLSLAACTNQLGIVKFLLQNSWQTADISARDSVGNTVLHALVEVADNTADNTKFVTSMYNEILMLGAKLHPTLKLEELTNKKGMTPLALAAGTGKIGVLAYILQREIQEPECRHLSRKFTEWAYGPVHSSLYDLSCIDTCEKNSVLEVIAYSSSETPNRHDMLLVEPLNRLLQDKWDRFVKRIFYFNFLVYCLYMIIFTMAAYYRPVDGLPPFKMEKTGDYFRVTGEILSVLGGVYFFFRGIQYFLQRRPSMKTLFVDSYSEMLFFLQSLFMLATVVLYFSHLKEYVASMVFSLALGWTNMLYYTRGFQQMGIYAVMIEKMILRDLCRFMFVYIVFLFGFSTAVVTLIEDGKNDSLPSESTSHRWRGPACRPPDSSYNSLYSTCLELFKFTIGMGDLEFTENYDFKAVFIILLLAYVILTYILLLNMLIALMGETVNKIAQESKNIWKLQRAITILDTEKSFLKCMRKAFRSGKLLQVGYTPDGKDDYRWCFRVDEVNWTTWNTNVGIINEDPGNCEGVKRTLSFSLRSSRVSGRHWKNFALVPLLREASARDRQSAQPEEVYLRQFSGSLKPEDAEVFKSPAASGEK
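Cells expressing TRPV1 were dye-loaded with Fluo-8 and read kinetically: 10 s baseline, 3 min after compound (agonist portion), then 2 min after EC20 capsaicin (allosteric enhancer portion). Calcium-bound dye fluorescence at 480/520 nm.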
PINK1 modulator: A Quantitative High throughput Screen to Identify Chemical Modulators of PINK1 Expression. PINK1 immunofluorescence, high-content cytometry, 24 h. Potency, µM (titrated, usually from 76.6 µM), for the others: at the top dose activation (PINK1 increase), hits mostly activators. 410,000 compounds, 0.2% hits. AID 624263, 2012; active = well fitted activation curve with a large enough effect; inconclusive = small, poorly fitted or top-dose-only effect; inactive = flat fitted curve, though single readings scatter; cell line not stated here;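 also: potency is read from the fitted curve at half-maximal effect; % of control where 0% means no effect; nearly all actives have a fitted effect of over 65% in size; a mitochondrial uncoupler was the plate control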
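Readout is PINK1 immunofluorescence, quantified alongside mitochondrial, cell and nuclear markers by laser-scanning microplate cytometry. Cells from a stable line were exposed to compound titrations (5 concentrations) for 24 hours, with CCCP controls.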
Starred values were filed as active, the others as inactive; u = inconclusive; x = no result given; & = joins results of further samples; [ ] = dose if it differs, or a comment. An unsorted share of the library; about 4.4% have a hit in one of these screens.

SMILES	TRPML1 blocker	ClpP mod	Sfp PPTase inh	TRPML1 ag	Menin MLL FP FL	TRPV1 PAM	PINK1 modulator
Cc1ccc(OCCSc2nnc(NC(=O)c3ccco3)s2)cc1	10.7	-0.3%	0.3%	0.2	-1.8	19.1	2.0%
COC(=O)c1c(-c2ccc(F)cc2)csc1NC(=O)c1ccco1	47.4	340.8%	-6.2%	3.5	9.4	-4.1	6.2%
CCn1c(Cn2nnc(-c3ccccc3)n2)nnc1SCc1ccc(Cl)c(Cl)c1	-3.1	3.0%	9.2%	1.1	2.3	4.7	15.4%
COc1ccc(C(N)=S)c(OC)c1	6.3	x	44.7µM*	-0.4	4.6	-0.7	-0.7%
CCN(CC)CCNC(=O)c1ccc(Cl)c(S(=O)(=O)Nc2ccc(Cl)cc2)c1	14.5&-14.5	-1.0%	-8.2%	0.1&0.7	-0.1	11.4	-2.1%&0.8%
Nc1ncnc2nnsc12	x	-12.1%	x	0.4	x	x	0.0%
CCN(CC)C(=O)C1CCN(S(=O)(=O)c2cccc3nonc23)CC1	8.0	1.1%	-6.1%	0.1	1.6	3.1	-4.2%[38.3 µM]
CCOc1ccc(C(=O)Nc2nnc(SCc3cc(=O)c4cc(C)ccc4[nH]3)s2)cc1	21.6	4.8%	x	1.4	x	x	2.0%
Cc1ccc(C)c(CN2C(=O)c3ccccc3S(=O)c3ccc(C(=O)N4CCCCC4)cc32)c1 (stereo not given)	17.8	-0.3%	x	-0.6	x	x	1.4%
Cc1ccc2nc(NC(=O)C3CCN(c4ncnc5sc(C)c(C)c45)CC3)sc2c1	-14.0	-4.6%	5.4%	-0.1	x	4.9	14.8%
O=C(CN1CCN(c2ccc(F)cc2)CC1)Nc1ccc2c(c1)OCCO2	-8.7	x	12.5%	0.2	-3.7	5.4	1.1%
O=C1CC(=O)C(n2cncn2)C(c2cccc(Cl)c2)C1 (stereo not given)	-6.1	-0.7%	24.5%	-0.5	3.3	-3.3	23.8%[38.3 µM]
COc1ccc2c(c1)CCc1c(C(=O)NCC(C)C)noc1-2	x	-8.3%	-7.6%	x	4.8	2.5	0.5%
CNC(=S)NNC(=O)c1sc2cc(C(F)(F)F)cnc2c1-c1cccnc1	1.6	x	18.7%	-0.1	-0.9	u	-0.4%
COc1ccc(C2CC(c3ccccc3)=NN2c2ccc(S(N)(=O)=O)cc2)cc1 (stereo not given)	-1.4	x	0.6%	0.9	8.5	-2.4	0.4%
COC(=O)C1=C[C@@H](C(=O)OC)C2C3=C(C(=O)[C@]2(CC(C)C)NC(=O)c2ccccc2)[C@H](C)n2c(=O)n(C)c(=O)n2[C@@H]3C1 (stereo not given in full)	6.6	x	19.2%	0.0	2.7	x	x
O=C(NC(=S)N1CCN(C/C=C/c2ccccc2)CC1)c1ccc(F)cc1	15.8	-1.4%	3.2%	-1.0	-0.2	-18.9	6.0%
COc1cc2c(cc1OC)CN(CC(=O)Nc1ccccc1C(=O)NC1CC1)CC2	37.5	-3.6%	x	0.2	x	0.4	0.8%
O=C(Nc1ccc(NC(=O)c2ccc3c(c2)OCCO3)cc1)c1ccccc1	0.7	x	2.9%	1.1	3.1	5.5	4.0%
CC1(c2ccccc2Cl)NC(=O)N(CC(=O)Nc2ccc3c(c2)OCO3)C1=O (stereo not given)	-4.1	-0.7%	11.3%	-1.5	0.0	-0.4	-0.5%
Cc1ccc(NC(=O)CN2C(=O)CC(C)S(=O)(=O)c3ccccc32)cc1 (stereo not given)	-3.6	1.0%	2.4%	-0.5	1.3	2.4	-0.2%
CN1C(=O)N(CN2CCCCC2)C2C1N(C)C(=O)N2CN1CCCCC1 (stereo not given)	-2.1	-0.7%	7.1%	-0.5	3.2	-9.7	0.3%
CCCCC(=O)NS(=O)(=O)c1ccc(N=NN2CCCCC2)cc1	-1.4	1.9%	24.8%	-0.6	-1.1	10.1	-0.3%
COc1ccc(Cl)cc1C(=O)N1CCN(Cc2ccc3c(c2)OCO3)CC1	-0.2	0.5%	16.7%	-0.5	1.6	3.4	1.9%
O=C(O)c1ccc(Oc2ccc(S(=O)(=O)c3ccc(C(=O)O)c(C(=O)O)c3)cc2)cc1	6.2	-2.8%	16.5%	-0.2	2.7	-7.4	3.5%
More structures.
SMILES	TRPML1 blocker	ClpP mod	Sfp PPTase inh	TRPML1 ag	Menin MLL FP FL	TRPV1 PAM	PINK1 modulator
Cc1ccc(NC(=O)CN2C(=O)S/C(=C\c3cccn3C)C2=O)cc1	25.1	-8.2%	-20.2%	2.0	0.7	x	x
COc1ccc(NS(=O)(=O)c2ccc(NS(=O)(=O)c3ccc(SC)cc3)cc2)c(OC)c1	9.4	-2.2%	-2.6%	0.2	-1.7	0.1	-1.0%[38.3 µM]
COc1ccc(C(C)=O)cc1COC(=O)CSC(C)C(=O)Nc1cc(C)on1 (stereo not given)	-6.5	-1.6%	x	-0.2	x	-1.3	4.0%
Cn1c(NCc2cccc(Cl)c2)nc2ccccc21	19.1	-1.0%	x	2.1	x	x	-0.6%
COc1ccc(-n2nc3c(c2NC(=O)COc2ccccc2)CS(=O)(=O)C3)cc1	10.4	-0.3%	21.1%	-0.8	-5.3	-15.9	0.1%
O=S(=O)(Cc1ccc(Cl)cc1)c1ccccc1-c1nnc(-c2ccccc2)o1	37.2	31.6µM*	-17.3%	1.5	1.1	0.6	11.6%
Cc1nn(C(C)C(=O)O)c(=O)c2c1sc1ccccc12 (stereo not given)	1.5	u	15.4%	0.1	4.3	-15.2	4.5%[38.3 µM]
COc1ccc(NC(=O)c2ccco2)cc1NC(=O)c1c(F)c(F)c(OC)c(F)c1F	-3.2	8.0%	10.2%	0.7	3.7	2.2	6.0%
CCOc1cc(C2C3=C(CC(C)(C)CC3=O)N(C)C3=C2C(=O)CC(C)(C)C3)ccc1O	4.0	-0.7%	-2.5%	0.0	1.2	u	0.6%
COc1ccc(OCC(O)CNC(C)c2ccccc2)cc1 (stereo not given)	-16.0	-1.2%	-5.2%	1.6	-0.2	5.8	-0.3%
CCOc1cc(NC(=S)NCc2ccco2)c(OCC)cc1NC(=O)c1ccco1	0.3	x	-4.4%	1.3	7.5	-6.2	4.4%
CCOCCCn1c(SCc2nc3sc(C(=O)O)c(C)c3c(=O)[nH]2)nnc1-c1ccc(Cl)cc1	-11.7	1.3%	-2.7%	-0.3	-1.6	-9.8	-1.8%
COc1ccccc1OCCn1c(CCNC(=O)C2CCCCC2)nc2ccccc21	x	2.7%	x	-0.4	x	x	0.9%
Cc1ccc(SCc2ccc(C(=O)Nc3cccc([N+](=O)[O-])c3C)cc2)cc1	2.1	-0.1%	-13.5%	0.9	0.3	-19.8	x
Cc1nn(C)c(C(=O)NNC(=O)NC2CCCCC2)c1Cl	17.0	2.2%	9.5%	-0.7	-0.3	-0.9	0.5%
CCOC(=O)c1c(NC(=S)NC(=O)c2ccc(Cn3cc(Cl)cn3)o2)sc2c1CCCCC2	6.3	1.1%	-0.3%	-0.2	-2.0	21.2	1.3%
O=C(Nc1nnc(CCN2CCOCC2)s1)C1CCCCC1	-16.3	0.8%	-12.9%	-0.4	-4.0	-0.1	-0.7%
CCc1ccc(NC(=S)N2CCC(NC(=O)C3CCCCC3)CC2)cc1	9.9	x	19.1%	-0.2	-0.9	2.4	5.3%
CCC(=O)n1nc(NCc2ccccc2OC)nc1NCc1ccccc1OC	16.2	-4.7%	4.8%	3.4	2.6	5.5	-0.3%
COc1ccc(NC(=O)c2cc(-c3ccccn3)nc3c(C)cc(C)cc23)c(C)c1	-1.9	-2.6%	-6.4%	2.2	-8.5	-5.4	15.8%
O=C1OCC/C1=C\NCCCN/C=C1\CCOC1=O	-20.6	-5.8%	x	-0.5	x	x	0.9%
COc1ccc2nc(NC(=O)CCN3C(=O)c4ccccc4C3=O)sc2c1	-5.2	0.2%	7.2%	0.4	1.2	-0.6	u
NC(=O)c1[nH]cnc1N=NN(CCO)Cc1ccccc1	29.2	0.4%	x	-0.3	x	x	-0.6%
CCC(=O)N1CCc2cc(S(=O)(=O)NCCC(=O)Nc3ccc(N(CC)CC)cc3C)ccc21	7.4	-0.6%	x	1.3	x	x	-1.5%
CC(C)(C)C(=O)Nc1ccc(-c2nc3ccccc3c(=O)o2)cc1	2.9	x	11.9%	0.4	-1.3	1.7	11.3%
Remaining list, next part:
SMILES	TRPML1 blocker	ClpP mod	Sfp PPTase inh	TRPML1 ag	Menin MLL FP FL	TRPV1 PAM	PINK1 modulator
O=C(NN1C(=O)c2ccccc2NC1c1ccoc1)c1ccc([N+](=O)[O-])cc1 (stereo not given)	9.4	-2.4%	15.1%	1.3	-2.4	-4.5	1.9%
Cc1cc(Nc2ccccc2)nn1C(=O)c1ccc([N+](=O)[O-])cc1	19.6	-0.6%	26.6%	0.0	1.3	-5.4	8.2%
Cc1cnc(C(=O)N2CCN(S(=O)(=O)c3cccc(Br)c3)CC2)cn1	-3.7	x	x	0.3	x	x	5.6%
CCOc1ccccc1NC1=NCC(=O)N1Cc1ccc(F)cc1	-5.0	-1.5%	4.0%	1.5	1.3	0.7	x
S=C(NCc1ccccn1)Nc1ccccc1Cl	4.7	-6.6%	u	-0.2	0.7	-0.4	-0.3%
O=C(Nc1ccc(C(F)(F)F)cc1)c1csc(-c2ccncc2)n1	u	x	7.5%	1.7	1.7	-16.9	-0.4%
CC(=O)c1c(C)[nH]c(C(=O)OCC(=O)c2c(N)n(C)c(=O)n(C)c2=O)c1C	x	x	16.5%	x	-0.6	0.7	x
COc1ccc(S(=O)(=O)NCCc2cn3nc(C)c(C)nc3n2)cc1C	-5.6	3.9%	8.4%	-1.4	x	10.3	-0.8%
N#Cc1cccc(-c2ccc3ncnc(NCc4ccccc4)c3c2)c1	x	x	8.1%	x	2.3	x	1.6%
CCN1CCN(c2cc(C)c3cc(NC(=O)c4ccccc4F)ccc3n2)CC1	-3.6	-7.4%	-7.8%	0.1	2.2	-14.3	1.3%
CCc1cc(-c2n[nH]c(=S)n2-c2cccc(C)c2)cs1	14.1	-14.9%	50.1µM*	1.1	2.3	6.6	3.4%[38.3 µM]
